NS1 function inh: influenza NS1 inhibition; S. cerevisiae slowed by influenza A NS1, growth recovery by OD600; Potency, µM (highest dose often 46.1 µM), for inactives: at the highest dose activity, positive = more growth; actives 0.4% (n = 270,000); AID 2326; active means well fitted rising curve with a large enough effect; inconclusive means small, poorly fitted or top-dose-only effect; inactive means no such curve, though single readings can be large or run the other way; note: nearly all actives have a fitted effect of over 50% in size
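In this qHTS, NS1 from influenza A is expressed in budding yeast, where it slows growth. Cells are switched from glucose to 2% galactose medium (pH 6.0, -URA), treated with compound, and growth recovery is read at OD600.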
RE007 growth inh: less growth of the S. pombe RE007 Vpr strain | S. pombe RE007 Vpr strain, BacTiter-Glo ATP luminescence, 24 h; control for the full effect not named in the record | Potency, µM (titrated, usually from 92.2 µM), inactives show top-dose activity change, negative = less growth | actives 0.21% (n = 360,000) | AID 651644; active = well fitted falling curve with a large enough effect; inconclusive = small, poorly fitted or top-dose-only effect; inactive = no such curve, though single readings can be large or run the other way;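 note: % is set by controls: 0 for no effect and ±100 for the full control effect; nearly all actives have a fitted effect of over 50% in size; the assay follows cell death caused by Vpr and the record does not say whether a fall means rescue or toxicity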
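Fission yeast RE007 carrying one integrated HIV-1 vpr copy, seeded at OD 0.01 in PMG+AL medium with 23 nL pinned compound. Grown 24 h at 30 degrees; viability read by BacTiter-Glo luminescence after 5 min.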
SARS PLP yeast: inhibitors of SARS-CoV papain-like protease in yeast; S. cerevisiae expressing SARS-CoV PLpro, growth rescue; control for the full effect not named in the record; Potency, µM (highest dose often 32.9 µM), inactives show at the top dose activity, positive = growth rescue; actives 0.19% (n = 330,000); AID 485353; active means well fitted rising curve with a large enough effect; inconclusive means small, poorly fitted or top-dose-only effect; inactive means no such curve, though single readings can be large or run the other way; note: 0% is about no effect; nearly all actives have a fitted effect of over 55% in size; growth read by luminescence after 48 h
Cruzain noTriton: inhibitors of Trypanosoma cruzi cruzain without detergent; Potency, µM, for inactives: max response, negative = inhibition, hits mostly inhibitors; purified cruzain, Z-FR-AMC fluorescence, no detergent; actives 2.3% (n = 200,000); AID 1476;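 note: plate controls were enzyme without inhibitor for no effect and buffer without enzyme for full effect; nearly all actives have a fitted effect of over 40% in size; top concentration of the series not given in the record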
Target sequence (P25779 123-467 limits assumed): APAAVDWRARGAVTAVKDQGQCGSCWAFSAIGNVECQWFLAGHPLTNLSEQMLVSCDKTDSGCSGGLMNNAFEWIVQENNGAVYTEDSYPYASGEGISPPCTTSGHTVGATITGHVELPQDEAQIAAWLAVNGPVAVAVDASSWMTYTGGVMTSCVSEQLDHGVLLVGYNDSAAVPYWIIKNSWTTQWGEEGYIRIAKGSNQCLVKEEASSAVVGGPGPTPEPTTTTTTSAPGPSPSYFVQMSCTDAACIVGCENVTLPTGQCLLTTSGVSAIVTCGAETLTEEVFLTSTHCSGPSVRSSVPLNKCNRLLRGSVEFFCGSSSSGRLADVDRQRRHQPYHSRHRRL
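Purified cruzain at 1.5 nM, pre-incubated 15 min with compound at room temperature in 100 mM sodium acetate pH 5.5, 5 mM DTT, 0.00005% Triton X-100. Reaction started with 2 uM Z-FR-AMC; AMC fluorescence increase over 60 s gives rate.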
Lassa entry inh: Lassa virus entry inhibition; Potency, µM (highest dose often 37.9 µM), for the others: at the top dose activity change, negative = inhibition, actives largely listed as inhibitors; actives 1.2% (n = 300,000); AID 540256; Lassa virus pseudotype entry inhibition, cell reporter; control for the full effect not named in the record; active means well fitted inhibition curve with a large enough effect; inconclusive means small, poorly fitted or top-dose-only effect, or effect the other way; inactive means flat fitted curve, though single readings scatter; tested in HEK293 cells; note: % is set by controls: 0 for no effect and ±100 for the full control effect; nearly all actives have a fitted effect of over 50% in size; luciferase read-out
Cruzain inh Det: blocks cruzain activity in presence of Triton detergent. P25779. Potency, µM, for the others: max response, negative = inhibition, usual class: inhibitors. purified cruzain, Z-FR-AMC fluorescence, 0.01% Triton. AID 1478. actives 0.43% (n = 200,000);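 note: plate controls were neutral wells for no effect and buffer without enzyme for full effect; nearly all actives have a fitted effect of over 40% in size; top concentration of the series not given in the record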
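Purified cruzain (1.5 nM final) was preincubated with compounds for 15 min at room temperature in 100 mM sodium acetate pH 5.5, 5 mM DTT, 0.01% Triton X-100. Reaction started with 2 uM Z-FR-AMC; AMC fluorescence change over 60 s gave activity.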
StopGo reporter: FMDV 2A StopGo reporter, luciferase signal. human cells with a luciferase reporter of 2A StopGo recoding; control for the full effect not named in the record. Potency, µM (doses to about 57.9 µM), without a hit: at the top dose signal change, negative = less light. actives 1.2% (n = 410,000). AID 1159524; active = well fitted falling curve with a large enough effect; inconclusive = small, poorly fitted or top-dose-only effect; inactive = no such curve, though single readings can be large or run the other way; tested in HEK293T cells; note: % is set by controls: 0 for no effect and ±100 for the full control effect; nearly all actives have a fitted effect of over 45% in size; luciferase light after 4 h
MARV entry inh: blocks Marburg virus binding to or entry into cells. Marburg virus pseudotyped entry inhibition, cell reporter; control for the full effect not named in the record; about a third of the inactives were read at about 46 µM. Potency, µM (titrated, usually from 37.8 µM), for inactives: at the highest dose activity change, negative = inhibition, usual class: inhibitors. actives 1.8% (n = 300,000); active = well fitted inhibition curve with a large enough effect; inconclusive = small, poorly fitted or top-dose-only effect, or effect the other way; inactive = flat fitted curve, though single readings scatter; tested in HEK293 cells; about a fifth of its hits are not listed in these tables; note: % is set by controls: 0 for no effect and ±100 for the full control effect; luciferase read-out
Numbers without * were called inactive; ? = inconclusive; · = not tested or not shown; & = joins results of further samples; [ ] = another dose, or the depositor's remark. Unless noted, calls come from the whole dose curve; as a rule, active = well fitted curve in the direction sought with a large enough effect; inconclusive = small, poorly fitted or top-dose-only effect, or another doubt; inactive = no such curve, though single readings can be large; an effect the other way counts as inactive or inconclusive. Potency is the fitted concentration of half-maximal effect.

molecule	NS1 function inh	RE007 growth inh	SARS PLP yeast	Cruzain noTriton	Lassa entry inh	Cruzain inh Det	StopGo reporter	MARV entry inh
COC(=O)/C(=N\Nc1ccccc1)Sc1nnc(-c2ccc(OC)cc2)n1C	-9%	9%	2%	-15%	0%	-8.8%	-13%	0%
N#CCc1c(C#N)c(N)nc(N2CCN(Cc3ccc4c(c3)OCO4)CC2)c1C#N	25%	15%	11%	-27%	0%	-5.4%	0%	-20%
COc1cccc(NC(=O)CCC2CCN(C(=O)c3scnc3C)CC2)c1	-9%	5%	0%	·	15%	·	0%	2%
O=c1c(N2CCCCC2)csc2ccc(F)cc12	·	·	·	4%	28%[46.1 µM]	-3.7%	34%[activator]	·
C1CCc2c(nnc3c2-c2nonc2CC3)C1	-5%	7%	2%	2%	21%	-4.3%	·	26%
Cc1cccc(NC(=O)C2CCCN(S(=O)(=O)c3c(C)noc3/C=C/N(C)C)C2)c1C (centres undefined)	·	·	·	17%	-8%[46.1 µM]	-4.0%	0%	2%[46.1 µM]
Cc1nc(N2CCOCC2)c2c(C(=O)NCc3ccc(Cl)cc3)c(C)oc2n1	·	·	·	-12%	18%[46.1 µM]	-0.9%	-16%	·
COc1ccc(Br)cc1CN1CCN(S(=O)(=O)Cc2ccccc2)CC1	2%	6%	-2%	·	-8%	·	-27%	?
C=CCNC(=O)N1CCC(n2nccc2NC(=O)CCc2ccccc2)CC1	-2%	11%	-1%	·	·	·	-8%	·
COc1ccc(CNCc2ccc(C(F)(F)F)cc2)cc1OC	-6%	-20%	4%	·	1%	·	0%	0%
CCCn1c2c(c(O)c(C(=O)Nc3nc(C)cs3)c1=O)CCCC2	4%	·	-3%	5%	·	7.0%	·	-1%
CCc1nc(NCC2CCCO2)c(C#N)c2c1COC(C)(C)C2 (centres undefined)	-10%	-19%	-5%	3%	?	1.1%	-12%	5%[46.1 µM]
COc1ccccc1CNC(=O)c1cc2c(=O)n(Cc3cccs3)ccc2nc1C	·	·	·	?	?	-3.4%	-26%	·
Cc1ccnc(NS(=O)(=O)c2ccc(NC(=O)C3CCCO3)cc2)n1 (centres undefined)	7%	15%	12%	3%	11%	-1.1%	12%	0%
Cc1ccccc1Nc1ncccc1C(=O)N1CCOCC1	4%	6%	0%	-2%	-9%	1.2%	-3%	4%
CCSc1ccccc1C(=O)NCCCn1ccnc1	13%	-3%	5%	-12%	-5%	6.7%	-14%	-12%
O=C(c1cc(C(=O)N2CCCC2)cc([N+](=O)[O-])c1)N1CCCC1	-1%	5%	13%	·	·	·	-11%	·
Cc1nn2c(-c3cccc(NC(=O)c4ccccc4)c3)nnc2c2ccccc12	·	·	·	-4%	7%[46.1 µM]	-0.2%	1%	?
COc1ccccc1CNC(=O)C1CCN(c2nc3ccc(C)cc3[nH]2)CC1	·	·	·	-10%	3%[46.1 µM]	-2.3%	4%	·
CCCCCCC(CC(=O)NCc1cccnc1)CC(=O)NCc1cccnc1	0%	10%	4%	·	·	·	2%	·
CCOc1ccc(C(=O)Nc2ccc(-c3nc4ccccc4s3)c(C)c2)cc1OCC	·	·	·	-5%	?	2.7%	67%[activator]	·
COc1ccc(/C=C2\CN(Cc3ccccc3)C/C(=C\c3ccc(OC)cc3)C2=O)cc1	18%	-2%	20µM*	-20%	7.9µM*	-6.9%	?	?
C=C(C)Cn1c(COc2ccccc2)nnc1SCC(=O)O	3%	11%	-3%	-6%	4%	4.5%	4%	9%
Fc1ccc(C(OCCN2CCCC2)c2ccc(F)cc2)cc1	6%	1%	-3%	-3%	-19%	1.1%	-24%	?
Cc1ccc(Oc2ccc(-c3nnc(-c4ccccc4)o3)cc2[N+](=O)[O-])cc1C	14%	·	0%	-22%	2%	-3.2%	·	16%
CCCCCC(=O)NC(=S)NC1C2CC3CC(C2)CC1C3 (centres undefined)	-1%	-1%	-2%	·	9%	·	8%	?
Cc1cc(C)c2nc3nc(C)c(C)cc3c(N)c2c1	-6%	?	-1%	·	?	·	-13%	?
Cn1c(=O)c2c(nc(Cl)n2Cc2ccncc2)n(C)c1=O	4%	3%	-2%	2%	-4%	0.3%	·	3%
CCC(C)NC(=O)c1cccc(C)c1 (centres undefined)	2%	20%	1%	·	7%	·	-3%	22%[46.1 µM]
Cc1ccc(S(=O)(=O)N2CCCc3cc(NC(=O)c4ccc(Cl)cc4)ccc32)cc1	·	·	·	?	?	-4.5%	-12%	·
Cc1ccccc1S(=O)(=O)Oc1cccc2c(O)cccc12	-59%	1%	-12%	·	·	·	58%[activator]	·
CCOc1ccc(CCNC(=O)COC(=O)COc2ccc(C(C)=O)cc2)cc1OCC	·	21%	·	·	17%	·	-4%	-5%
CC(=O)O[C@H]1C[C@@H]2CCC3C(CC[C@@]4(C)[C@H]3C[C@H]([N+]3(C)CCCCC3)[C@@H]4OC(C)=O)[C@@]2(C)C[C@@H]1[N+]1(C)CCCCC1 (some centres undefined)	-3%	·	·	-3%	·	-2.2%	·	?
CN(C)S(=O)(=O)N(CC(=O)NCCSCc1c(F)cccc1Cl)c1ccccc1	·	·	·	14%	-14%[46.1 µM]	-7.1%	-1%	?
Cc1ccc(OCCNC(=O)c2cc(C(=O)NCCOc3ccc(C)cc3)cc([N+](=O)[O-])c2)cc1	?	5%	0%	-9%	?	-2.5%	-19%	?
CCCSc1nc2c(c(=O)[nH]1)C(c1ccc(O)c(OCC)c1)CC(=O)N2 (centres undefined)	·	·	·	-6%	12%[46.1 µM]	-3.4%	4%	?
CN(CCCCCCCCC(=O)/C=N/O)Cc1ccccc1	0%	13%	-5%	-14%	?	4.2%	·	?
Cc1cccc(OCCCC(=O)Nc2ccc(Br)cc2)c1	-1%	4%	-8%	6%	-4%	-6.1%	-20%	11µM*
Cn1c(=O)c2c(-c3cccc(Br)c3)n(CCO)cc2n(C)c1=O	·	·	·	5%	14%[46.1 µM]	-4.0%	?	2%[46.1 µM]
CCCN(CC(=O)Nc1ccccc1OC)C(=O)c1ccccn1	·	17%	4%	·	23%	·	-4%	-2%
COc1ccc(N2CCN(C(=O)CCS(=O)(=O)c3cccc4nsnc34)CC2)cc1	9%	-15%	-21%	-4%	18%	-7.0%	0%	0%&2%
CCO[C@H]1OC(C(=O)N2CCN(C)CC2)=C[C@@H](C(C)(C)C)[C@@H]1CCCO	4%	2%	-1%	·	·	·	-12%	·
CCOC(=O)NC(=O)COC(=O)c1cccc2ccccc12	·	1%	-10%	·	3%	·	0%	29%[46.1 µM]
CN(C)c1ccc(CNc2nc(-c3ccco3)nn2S(=O)(=O)c2ccc3ccccc3c2)cc1	·	·	·	?	-2%[46.1 µM]	-2.6%	36%[activator]	23%[46.1 µM]
O=C(CCCn1c(=S)[nH]c2cc3c(cc2c1=O)OCO3)NCc1cccc(Cl)c1	0%	15%	0%	·	·	·	-19%	·
N#CC1=C(N)SC(N)=C(C#N)C1c1ccc(C(F)(F)F)cc1	5%	·	-3%	-21%	·	-6.7%	·	7%
O=C(NCCNC(=O)C(c1ccccc1)c1ccccc1)c1ccco1	0%	8%	1%	4%	10%	1.9%	-3%	11%
Cc1ccc(C2=N/C(=C\c3c(C)nn(-c4ccccc4)c3N3CCCC3)C(=O)O2)cc1	10%	-6%	-1%	1.6µM*	-13%	1µM*	-9%	-2%
CCOc1ccc(CCNC(=O)CSc2nc3ncc(Cl)cc3[nH]2)cc1OCC	-4%	39%	1%	·	17%	·	-19%	12%
CC12CCC(C(=O)N/N=C/c3ccc(O)cc3)(OC1=O)C2(C)C (centres undefined)	2%	4%	0%	·	·	·	3%	·

More structures follow.
molecule	NS1 function inh	RE007 growth inh	SARS PLP yeast	Cruzain noTriton	Lassa entry inh	Cruzain inh Det	StopGo reporter	MARV entry inh
CC(=O)c1cccc(Nc2cc(C)nc3c(C)cccc23)c1	0%	-10%	2%	·	3%	·	-1%	?
Cc1ccc(NC2c3ccccc3C(=O)N2c2cccnc2)cc1 (centres undefined)	-1%	7%	-1%	·	3%	·	-7%	4%[46.1 µM]
O=C(NCc1ccc2c(c1)OCO2)c1cnc2ccccn2c1=O	-4%	2%	?	-8%	-17%	-3.9%	4%	5%
Cc1ccn2c(NC(=O)c3ccccc3)c(-c3ccccc3)nc2c1	-12%	8%	-3%	·	-9%	·	0%	-3%
COc1ccc(-c2nc(SCC(=O)Nc3cccc(S(N)(=O)=O)c3)n[nH]2)cc1	·	-17%	1%	·	4%	·	14%	3%[46.1 µM]
COc1ccc(C(=O)Nc2cc(C)on2)cc1[N+](=O)[O-]	·	6%	0%	·	?	·	1%	-5%[46.1 µM]
O=C(c1ccc(Cl)cc1)C(CN1CCCC1)c1ccccc1 (centres undefined)	-84%	?	-20%	·	·	·	25µM*	·
O=C(CCn1c(=O)oc2ccc(Cl)cc21)N1CCN(c2ccccc2)CC1	1%	-11%	-3%	·	·	·	?	·
COc1ccc(CNC(=O)c2cnc(C)cn2)c(OC)c1	-9%	13%	-3%	1%	2%	5.6%	2%	10%
CC1CCc2c(sc(NC(=O)CSc3nc4c(c(C(F)(F)F)n3)CCc3ccccc3-4)c2C(N)=O)C1 (centres undefined)	16%	2%	-6%	10µM*	7%	-1.6%	-16%	10%
COc1ccc(-c2nc(C)ncc2-c2csc(C)n2)c(O)c1	3%	4%	4%	10%	15%	3.8%	8%	11%
C/C(=N/NC(=O)CNC(=O)COc1ccccc1)c1ccco1	0%	-3%	8%	4%	-1%	-0.3%	15%	?
CC1(C)CC(OC(=O)c2ccccc2)CC(C)(C)N1	-4%	-9%	?	9%	2%	8.3%	·	21%
C=CCOc1ccc(CNc2nccs2)cc1OCC	0%	0%	0%	-24%	-5%	-1.7%	-5%	14%
CCOC(=O)CSC1=C(C#N)C(c2ccccc2OCC)C(C(=O)OCC)C(=O)N1 (centres undefined)	-11%	6%	-4%	-7%	-7%	0.7%	-20%	-6%

Source: PubChem BioAssay (National Center for Advancing Translational Sciences (NCATS))
